GIV-Gai inh: inhibitors of GIV peptide binding to Galpha-i3, primary screen, biochemical, fluorescence polarization, FITC-GIV GBA peptide, rat Galphai3; Guanine nucleotide-binding protein G(i) subunit alpha-3 (Rattus norvegicus), P08753; percent of control (FP), % (no concentration beside the values); 90 min; hits give low values; scaled: aluminum fluoride 0%, vehicle 100%; AID 1224905, 2016; actives 0.42% (n = 210,000);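 active = replicate mean at 85% of control or lower, very high polarization wells dropped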;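 also: wells of about 15 µL received 100 nL stock; the first replicate is given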
Target sequence (P08753 whole entry, looked up): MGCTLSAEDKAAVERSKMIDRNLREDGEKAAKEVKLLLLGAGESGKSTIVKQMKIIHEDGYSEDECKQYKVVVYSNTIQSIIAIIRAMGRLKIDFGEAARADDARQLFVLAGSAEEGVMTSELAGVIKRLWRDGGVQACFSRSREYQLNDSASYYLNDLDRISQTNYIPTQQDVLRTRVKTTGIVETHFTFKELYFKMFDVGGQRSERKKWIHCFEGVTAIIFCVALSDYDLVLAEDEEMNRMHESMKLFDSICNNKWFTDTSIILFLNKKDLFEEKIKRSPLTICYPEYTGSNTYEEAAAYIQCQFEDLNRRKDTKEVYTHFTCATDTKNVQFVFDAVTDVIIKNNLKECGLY
Sa growth inh: S. aureus growth inhibition at 42 and 30 °C, primary screen, LtaS inhibitor project, RN4220, two temperatures; relative growth, % (test concentration not listed); actives 0.53% (n = 170,000); OD600, 20 h, 42 °C; hits give low values;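 active = growth at 42 °C up to 50% and 20 or more points under that at 30 °C, or under 10% at both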;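 also: 300 nL library stock went into each well; scaled to the means of positive and negative controls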
HCMV UL50-53 inh: inhibitors of HCMV UL50-UL53 interaction, biochemical, HTRF. HCMV UL50-UL53 nuclear egress complex (human cytomegalovirus). normalized percent inhibition. inhibition, % (test concentration not listed). actives 0.15% (n = 190,000);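 active = both replicates at 50% or more, plus weaker picks with an unusually low signal ratio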;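 also: stock transfer was 100 nL into about 20 µL; 0% = negative control wells and 100% = wells with untagged competitor protein; inactives centre near -12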
Sa growth inh second temp: second read-out of Sa growth inh, no call of its own (marks repeat the call); relative growth, %; measured here: growth at 30 °C;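 optical density after 20 h as mean of two plates; 100% = untreated growth and lower means inhibition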
* hit, by the source's call; nt = not tested or not shown; & = joins results of further samples.

SMILES	GIV-Gai inh	Sa growth inh	Sa growth inh second temp	HCMV UL50-53 inh
O=C(/C=C/c1ccco1)Nc1ccc(-c2nc3ccccc3[nH]2)cc1	100	108	70	-16
CC(Sc1nnc(CCNC(=O)c2ccccc2F)n1C)c1nc2ccccc2c(=O)[nH]1 (stereo not given)	104	80	91	-17
CCOc1ccc(-n2c(=O)[nH]cc(C(=O)N3CCCc4ccccc43)c2=O)cc1	110	131	85	nt
COc1cccc(N2CCN(C3C(=O)c4ccccc4N3C(C)=O)CC2)c1 (stereo not given)	101	110	81	nt
CCc1nn(CC(=O)N(C)C2CCCCC2)c(=O)c2cc3cc(C)ccc3n12	103	99	86	nt
CCc1ccc(N2CC(C(=O)N3CCCC3)CC2=O)cc1 (stereo not given)	100	97	81	nt
Cc1noc(C)c1C(=O)Sc1nccc(C(F)(F)F)n1	96	61	70	-23
COc1ccc(-c2nc3scc(CCNS(=O)(=O)N(C)C)n3n2)cc1	102	100	88	-33
Oc1c(Cl)cc(Cl)cc1/C=N/NCCc1ccccn1	127	78	64	-61
O=C(Nc1nccs1)c1ccc2c(c1)C(=O)N(CC1CCCO1)C2=O (stereo not given)	101	94	88	-8
CCC(=O)c1c(OCC(N)=O)ccc2c(C)cc(=O)oc12	110	78	82	nt
O=C(O)c1ccc(Nc2nnc(-c3c[nH]c4ccccc34)o2)cc1	nt	107	108	7
CCN(c1ccc(NC(=O)c2cc(Cl)c3c(c2)OCCCO3)cc1)C(C)C	nt	92	98	-20
COc1cccc(CNC(=O)CC2=NS(=O)(=O)c3ccccc3N2)c1	103&102	82	70	-30&1
COc1cccc2c(=O)n(CC(=O)N3CCOCC3)ccc12	96	109	96	-18
CC1CCCC(C)N1C(=O)COC(=O)c1cccnc1Cl (stereo not given)	nt	92	91	7
C=C(C)CN1c2ccccc2Sc2ccccc21	92	79	93	nt
Cc1cc(C(=O)CN2C(=O)NC3(CCSc4ccc(F)cc43)C2=O)c(C)n1CC1CCCO1 (stereo not given)	nt	95	98	-1
CN(C)c1ccc(NC(=O)COc2cccc3ccccc23)cc1	nt	120	82	-13
Cc1ccc(CNC(=O)CN2C(=O)CSc3ccc(S(=O)(=O)N(C)C)cc32)cc1	102	91	90	nt

Fetched by structure from above, 5 records:
SMILES	GIV-Gai inh	Sa growth inh	Sa growth inh second temp	HCMV UL50-53 inh
O=C(O)c1ccc(Nc2nnc(-c3c[nH]c4ccccc34)o2)cc1	nt	107	108	7
CN(C)c1ccc(NC(=O)COc2cccc3ccccc23)cc1	nt	120	82	-13
CC1CCCC(C)N1C(=O)COC(=O)c1cccnc1Cl (stereo not given)	nt	92	91	7
O=C(/C=C/c1ccco1)Nc1ccc(-c2nc3ccccc3[nH]2)cc1	100	108	70	-16
Cc1ccc(CNC(=O)CN2C(=O)CSc3ccc(S(=O)(=O)N(C)C)cc32)cc1	102	91	90	nt

As a short view, part of the list above.
SMILES	GIV-Gai inh	Sa growth inh	Sa growth inh second temp	HCMV UL50-53 inh
O=C(/C=C/c1ccco1)Nc1ccc(-c2nc3ccccc3[nH]2)cc1	100	108	70	-16
CC(Sc1nnc(CCNC(=O)c2ccccc2F)n1C)c1nc2ccccc2c(=O)[nH]1 (stereo not given)	104	80	91	-17

Four entries from above, with values under each structure:
Every second line gives: GIV-Gai inh	Sa growth inh	Sa growth inh second temp	HCMV UL50-53 inh
- O=C(Nc1nccs1)c1ccc2c(c1)C(=O)N(CC1CCCO1)C2=O (stereo not given)
→ 101	94	88	-8
- O=C(/C=C/c1ccco1)Nc1ccc(-c2nc3ccccc3[nH]2)cc1
→ 100	108	70	-16
- CCC(=O)c1c(OCC(N)=O)ccc2c(C)cc(=O)oc12
→ 110	78	82	nt
- Oc1c(Cl)cc(Cl)cc1/C=N/NCCc1ccccn1
→ 127	78	64	-61

Next part.
SMILES	GIV-Gai inh	Sa growth inh	Sa growth inh second temp	HCMV UL50-53 inh
O=C(CSc1nc2ccccc2[nH]1)Nc1ccc(N2CCOCC2)cc1	106	99	93	-26
CC(C)Cn1c(N)c(C(=O)COC(=O)[C@H](C)N=C2NS(=O)(=O)c3ccccc32)c(=O)n(C)c1=O	nt	107	94	1
Cc1ccc(S(=O)(=O)NC2=NCN(C(C)C)CN2)cc1	100&102	100	91	-14&-34
C/C(=N\NC(=O)c1ccc(NS(=O)(=O)c2ccc(Br)cc2)cc1)c1ccc(C)o1	nt	109	90	4
CN1CCC(N(C)C(=O)c2ccc(Cl)c(S(=O)(=O)Nc3ccccc3C(=O)N(C)C3CCN(C)CC3)c2)CC1	nt	83	89	-18
CC(=O)Nc1ccccc1N	nt	98	87	-7
CC(C)c1nc(-c2ccc(C(=O)N3CCN(c4nc5cccnc5o4)CC3)cc2)no1	105	nt	nt	-10
CCn1c(=O)cc(OCC(=O)NCc2ccc(OC)cc2OC)c2ccccc21	102	81	74	-16
CCCCCC(=O)C1CCCCC1=O (stereo not given)	98	95	98	1
CCn1c(=O)c2c(n3c(=S)[nH]nc13)-c1ccccc1CC21CCCCC1	100	78	107	-39
C(=N\n1cnnc1)/c1ccc2c(c1)OCO2	113	87	79	-64
O=C(COc1ccc(S(=O)(=O)NC2CCCCC2)cc1)Nc1ccc(C(F)(F)F)cc1	105	96	89	-4
O=C(CSc1nnc2scc(-c3ccc(Cl)cc3)n12)Nc1cccc(C(F)(F)F)c1	103	99	79	-12
CCc1nnc(NC(=O)CCC(=O)N2CCC(O)CC2)s1	101	109	85	-7
CCc1ccccc1NC(=O)C1=CC(c2ccc(C)cc2)=NS(=O)(=O)N1C	97	nt	nt	-34
O=C(OCCN1CCCCC1)c1cccs1	99	102	88	-5
Cc1c(C(=O)NCc2cccnc2)sc2ncn(CC(=O)N3CCCCC3C)c(=O)c12 (stereo not given)	nt	100	88	-7
COc1ccc(Cl)cc1S(=O)(=O)N1CCC(C(N)=O)(N2CCCCC2)CC1	100	97	89	-7
Cc1nn(-c2ccccc2)c2sc(C(=O)N(C)c3ccccc3)cc12	nt	63	58	-19
COc1ccc(OC)c(CCNC(=O)CN2C(=O)COc3ccc(S(=O)(=O)N4CCCCCC4)cc32)c1	101	120	76	-9
Cc1nc(-c2ccc(F)cc2)sc1CCNS(=O)(=O)c1ccc(Br)cc1	97	nt	nt	-6
COc1ccc(CC(=O)N2CCN(c3ccccc3)CC2)cc1	98	101	109	-4
O=C(Nc1sc2c(c1C(Nc1ccccn1)c1ccccn1)CCCC2)c1ccccc1 (stereo not given)	109	nt	nt	-27
CC1(C)Cc2cccc(C(=O)Nc3ccncc3)c2O1	104	99	108	5
O=C(c1ccc(Nc2ccnc(-c3ccccc3)n2)cc1)N1CCCC1	104	nt	nt	-7
O=C1/C(=C/c2ccccc2Br)Cc2ccccc21	108	96	72	nt
CCSc1nc2ccccc2c(OCc2ccccc2Cl)c1C(=O)OC	96	76	74	nt
C[n+]1ccc(/C=C/c2ccc3c(c2)OCO3)c2ccccc21	222	0.0*	-0.6*	nt
O=C(CN1c2ccc(Br)cc2-c2ccccc2S1(=O)=O)N1CCCCC1	108	102	95	2
O=C(CCCN1C(=O)c2ccccc2C1=O)NC1=NCCS1	nt	82	90	-21
CN=C1SC(CC(=O)NC)C(=O)N1C (stereo not given)	99	113	82	-7
Cc1cc(Nc2cccc(Cl)c2)nc2ccc(NC(=O)c3cccc(N(C)C)c3)cc12	105	119	75	nt
COC(=O)c1cc2c(ccn2-c2ccc(F)cc2)n1CC(=O)c1ccc(OC)cc1	94	112	83	-6
COc1ccc(-c2nc3n(n2)C(c2ccccc2)C(C(=O)Nc2cccnc2)=C(C)N3)cc1 (stereo not given)	95	89	90	nt
C/C(=C\C(=O)NN)NNc1ncnc2ccccc12	nt	60	66	-13
c1ccc(OCc2nn[nH]n2)cc1	nt	74	90	-27
CCc1nnc2c3c(-c4ccc(F)cc4)c(C)sc3ncn12	98	90	88	nt
Cc1cc(C)[n+]2c(n1)SC(C)C2 (stereo not given)	103	96	91	-5
O=C(Cc1cccs1)NC1(C(=O)NC2CCCC2)CCCCC1	105	89	91	12
O=C(O)c1c2c(nc3ccc(F)cc13)CCCC2	104	92	94	-25
CCN(CC)S(=O)(=O)c1nnc(NC(=O)COc2ccc(Cl)cc2)s1	106	98	74	5
O=S(=O)(Nc1nc2n(n1)C(c1ccccc1)C=C(c1ccc(Cl)cc1)N2)c1ccc(Cl)cc1 (stereo not given)	108	nt	nt	-42
NC(C(=O)O)C(O)c1ccccc1 (stereo not given)	nt	102	86	-14
COc1ccccc1CN1CCN(C2CCN(C(=O)Nc3ccccc3)CC2)C(=O)C1=O	108&96	102	89	10
COc1ccc(S(=O)(=O)NC(C)C)cc1	nt	109	82	-6
Fc1ccccc1Nc1ccc2ccccc2n1	nt	63	51	-16
Cc1ccccc1Nc1c(-c2cccnc2)nc2ccc(Cl)cn12	98	93	85	-26
Cc1ccc(/C(COc2ccccc2O)=N\O)cc1	nt	118	93	-27
CC(=O)N=C1c2ccccc2CN1c1ccc(C#N)cc1	nt	94	88	-23
Cc1c(Cc2ccccc2)c(=O)oc2c(O)c(O)ccc12	100	64	26	-24
Cc1nn(-c2cc(N3CCCC3)ncn2)c(C)c1CCC(=O)Nc1ccc2c(c1)OCO2	98	nt	nt	-1
Cc1ccc(Cl)cc1-n1c(=O)cc(N2CC(C)OC(C)C2)[nH]c1=O (stereo not given)	97	106	104	7
Cc1ccc(CSc2n[nH]c(-c3ccc(C(C)(C)C)cc3)n2)cc1	103	94	96	-3
CCOC(=O)Cn1ncc2c3ccccc3n(CC(=O)OCC)c2c1=O	101	92	85	-7
CCCCOc1ccc(C(C)NC(=O)c2cccc(Nc3nc4ccccc4n4nnnc34)c2)cc1 (stereo not given)	101	122	94	nt
N#C/C(=C\NCc1ccco1)S(=O)(=O)c1ccc(Cl)cc1	109	99	82	-14
O=C(c1ccc(F)cc1)N1CCCCC(Sc2ccccn2)C1=O (stereo not given)	nt	80	89	-25
COC(=O)NNC(=O)C1CCC(C)CC1 (stereo not given)	103	91	98	-1
O=C(Nn1cnnc1)c1ccc(Cl)cc1	nt	110	96	2
Cc1ccc(NC(=O)C(C)Sc2nnc(C3CCCCC3)n2C)cc1 (stereo not given)	99	88	118	8
Later entries
SMILES	GIV-Gai inh	Sa growth inh	Sa growth inh second temp	HCMV UL50-53 inh
COc1ccc(C)cc1NS(=O)(=O)c1cccs1	96	116	91	nt
Cc1nn(C(C)C(=O)Nc2ccc(C(C)C)cc2)c(=O)c2c1sc1ccccc12 (stereo not given)	106	106	87	-3
CCSc1nnc(NC(=O)C2Cc3ccccc3CN2C(=O)c2ccco2)s1 (stereo not given)	nt	99	91	-9
CCOC(=O)c1ccccc1NC(=O)C1=Cc2cc(C)ccc2OC=C1	103	nt	nt	-28
Cc1c(C(=O)O)oc2c1-c1nn(Cc3ccccc3Cl)cc1CC2	103	93	73	-23
O=C(NCCCN1CCCC1)c1cc2cc3ccc(Cl)cc3nc2o1	98	nt	nt	-55
Cc1nc2c(c3nc(C#N)c(C#N)nc3n2Cc2ccco2)c2nc3ccccc3n12	nt	93	84	-2
CCOC(=O)COc1cc(=O)[nH]c2ccc(OC)cc12	99	111	88	-8
CC1(C)Cc2c(C#N)c(N)sc(=S)c2CO1	105	81	66	-79
CC1=N/C(=C\c2cccs2)C(=O)O1	104	104	94	-23
CC(C)(CC(=O)O)CC(=O)Nc1ccc2c(c1)OCO2	98	94	84	-23
O=C(Nc1ccc(-n2cnnn2)cc1)C1c2ccccc2Oc2ccccc21	nt	105	96	-15
NC1(N)OC(CN2C(=O)c3ccccc3C2=O)CS1 (stereo not given)	105	107	83	nt
Cc1cc2c3c(c1)C1C=CCC1C(C(=O)O)N3CC1CC=CC21 (stereo not given)	108	161	71	-8
Fc1ccc(NC(=S)NC2CC2)cc1Cl	104	111	90	-15
COc1ccc(C2SCCN2C(=O)c2cc3ccccc3oc2=O)cc1Br (stereo not given)	110	nt	nt	-9
CC(SC1CCCC1)C(=O)Nc1ccnn1C(C)C (stereo not given)	nt	97	87	-6
Cn1nc(C(=O)Nc2cccc(Cl)c2)c2c1-c1ccsc1CC2	110	nt	nt	-5
C=CCN=C1CC(C)(C)CC(=O)/C1=C(\O)CCC(=O)OC	97	91	78	nt
COc1ccc(/C=C\c2onc(C)c2S(=O)(=O)N2CCC(C(=O)Nc3ccc(C)c(F)c3)CC2)cc1	104	98	82	-10
CCOC(=O)c1ccc(N2C(=O)c3n[nH]c(-c4cccs4)c3C2c2ccc(OCC)cc2)cc1 (stereo not given)	100	107	85	4
O=c1oc2ccc(Br)cc2cc1-c1nnc(Nc2cccc3ccccc23)s1	102	nt	nt	-21
CCCN1C(=O)c2c(C(=O)NCc3ccc(C)cc3)ncn2CC1(C)C(=O)NCc1ccccc1 (stereo not given)	107	nt	nt	-22
COc1ccccc1N1CCN(C(=O)CSc2nnc3ccc(C(=O)Nc4ccc(C)cc4)cn23)CC1	95	nt	nt	-49
Cc1ccc2oc(-c3cccc(N4C(=O)c5cccnc5C4=O)c3)nc2c1	97	87	84	-29
CC(C)(C)c1ccc(CCC2OCC(CN3CCOCC3)O2)cc1 (stereo not given)	nt	114	95	-32
CCn1c(=O)cc(OCC(=O)NCc2ccc(F)cc2Cl)c2ccccc21	108	98	91	4
Cc1cccc(NC(=S)N(CCN2CCCCCC2)Cc2cccs2)c1	98	110	89	nt
O=C1CC(c2ccc(S(=O)(=O)N3CCCC3)cc2)CN1 (stereo not given)	99	106	87	-4

High-throughput results (PubChem)
